2A Renilla: Primary qHTS Assay for Foot and Mouth Disease Virus Antivirals against NCGC Sytravon and CBC Compound Libraries: Renilla Luciferase Signal; Potency, µM (series often up to 57.5 µM), for the others: at the top dose signal change, negative = less light; 0.32% of 120,000 active; HEK cells with a luciferase reporter of 2A StopGo recoding; active means well fitted falling curve with a large enough effect; inconclusive means small, poorly fitted or top-dose-only effect; inactive means no such curve, though single readings can be large or run the other way; further: nearly all actives have a fitted effect of over 55% in size; overnight with compound
2A firefly: Primary qHTS Assay for Foot and Mouth Disease Virus Antivirals against NCGC Sytravon and CBC Compound Libraries: Firefly Luciferase Signal | AID 1745856, 2022 | 0.23% of 120,000 active | HEK cells with a luciferase reporter of 2A StopGo recoding | Potency, µM (highest dose often 57.5 µM), inactives show at the top dose signal change, negative = less light; active = well fitted falling curve with a large enough effect; inconclusive = small, poorly fitted or top-dose-only effect; inactive = no such curve, though single readings can be large or run the other way; further: nearly all actives have a fitted effect of over 60% in size; overnight with compound
The depositor's hits bear a star; ? = inconclusive; & = joins results of further samples; [ ] = remark or other dose. On the % scale 0 is the no-effect control and ±100 the full control effect; potency means the concentration at half of the fitted maximal effect.

The opening 6 compounds as a preview:
SMILES	2A Renilla	2A firefly
Cc1nn(CC(=O)Nc2ccc(C(C)C)cc2)c2ccccc12	-8%	11%
COc1ccccc1NC(=O)CSc1oc(-c2ccccc2)nc1S(=O)(=O)c1ccccc1	44%[activator]	-7%
CC(NC(=O)COc1ccc2c(=O)c(Oc3ccc(F)cc3)coc2c1)c1ccccc1 (stereo not given)	?	?
CCC(=O)N1c2ccccc2CC1C(=O)NCCc1ccc(SC)cc1 (stereo not given)	-9%	-16%
CC(OC(=O)c1ccc(S(=O)(=O)N(C)C)cc1)C(=O)c1ccccc1 (stereo not given)	-13%	-2%
COC(=O)[C@]12C[C@H](CC(=O)NCC3CCCCC3)C(=O)N(Cc3ccc(Cl)cc3Cl)C1=C[C@H](C(C)C)O[C@@H]2C1CC1	48%[activator]	4%

The listing, previewed entries included:
SMILES	2A Renilla	2A firefly
Cc1nn(CC(=O)Nc2ccc(C(C)C)cc2)c2ccccc12	-8%	11%
COc1ccccc1NC(=O)CSc1oc(-c2ccccc2)nc1S(=O)(=O)c1ccccc1	44%[activator]	-7%
CC(NC(=O)COc1ccc2c(=O)c(Oc3ccc(F)cc3)coc2c1)c1ccccc1 (stereo not given)	?	?
CCC(=O)N1c2ccccc2CC1C(=O)NCCc1ccc(SC)cc1 (stereo not given)	-9%	-16%
CC(OC(=O)c1ccc(S(=O)(=O)N(C)C)cc1)C(=O)c1ccccc1 (stereo not given)	-13%	-2%
COC(=O)[C@]12C[C@H](CC(=O)NCC3CCCCC3)C(=O)N(Cc3ccc(Cl)cc3Cl)C1=C[C@H](C(C)C)O[C@@H]2C1CC1	48%[activator]	4%
CN(Cc1ccc(-c2ccc(Cl)cc2)o1)C(=O)CNC(=O)c1ccc(F)cc1	-20%	-11%
CC(C)(C)c1ccc(C(=O)NC(Nc2ccc3ccccc3c2)C(Cl)(Cl)Cl)cc1 (stereo not given)	?	-37%
CC(CNC(=O)C1CCC(C(=O)NCC(C)c2ccccc2)CC1)c1ccccc1 (stereo not given)	4%	-1%
COc1cc(-c2nnc(SCCOc3ccc(Cl)cc3C)o2)cc(OC)c1OC	7%	2%
CCOC(=O)C(NC(=O)c1cc2ccccc2o1)C(=O)OCC	17%	23%
Cc1cc(C)cc(N2C(=O)CSC23C(=O)N(CC(=O)Nc2ccc(F)cc2F)c2ccccc23)c1 (stereo not given)	-8%	4%
CN(Cc1cccc(F)c1)S(=O)(=O)c1ccc2c(c1)CCCC2	90%[activator]	-7%
Cc1cccc(NC(=O)CC2Nc3cccc4cccc(c34)NC2=O)c1 (stereo not given)	35%[activator]	0%
Cc1cccc(OCc2ccc(-c3nc(C#N)c(N4CCC(C(N)=O)CC4)o3)o2)c1	0%&46%	1%&4%
Cc1ccccc1C(=O)NCC(C)C	10%	0%
CCc1nc2ccccc2c(C(=O)OCC(=O)NC(=O)NCc2ccccc2)c1C	2%	-7%
O=C(Cn1c(SCc2ccc(F)cc2)nc2cccnc21)Nc1ccccc1F	-21%	39%[activator]
COc1ccc(-c2csc3c2NC(=O)CC3c2cc(C)ccc2C)cc1 (stereo not given)	5%	8%
CCc1ccc(-n2c(SCC(=O)NC(C)CC)nc3n[nH]c(C)c3c2=N)cc1 (stereo not given)	69%[activator]	5%

Copied from the list.
`Cc1nn(CC(=O)Nc2ccc(C(C)C)cc2)c2ccccc12` in 2A Renilla: -8%
`CCc1nc2ccccc2c(C(=O)OCC(=O)NC(=O)NCc2ccccc2)c1C` in 2A Renilla: 2%

Reformatted with each value named: entries from further up.
> CC(CNC(=O)C1CCC(C(=O)NCC(C)c2ccccc2)CC1)c1ccccc1 (stereo not given)
- 2A Renilla: 4%
- 2A firefly: -1%

> CC(C)(C)c1ccc(C(=O)NC(Nc2ccc3ccccc3c2)C(Cl)(Cl)Cl)cc1 (stereo not given)
- 2A Renilla: ?
- 2A firefly: -37%

The results go on.
SMILES	2A Renilla	2A firefly
Cc1nn(Cc2ccccc2Cl)c(C)c1NC(=O)c1cc(C(C)C)on1	-3%	11%
CCCC(NC(=O)c1nn(C)c(=O)c2ccccc12)c1ccccc1 (stereo not given)	-2%	-3%
CCOc1ccccc1N1CCN(Cc2cc(=O)oc3ccc4ccccc4c23)CC1	-13%	-12%
Cc1cccc(NC(=O)COc2ccc(-c3nn(C)c(=O)c4ccccc34)cc2)c1	-14%&30%	?
COCCCNC(=O)Cc1nn(C)c(=O)c2ccccc12	6%	11%
COC(=O)c1ccc(C2C(c3ccccc3)=C(O)C(=O)N2c2ccc(Cl)cc2)cc1 (stereo not given)	16%	0%
COc1ccc(C(=O)COC(=O)Cc2c(Cl)cccc2Cl)c(OC)c1	25%	11%
O=C(Nc1c(-c2ccc(F)cc2)nc2sccn12)c1ccc(S(=O)(=O)N2CCOCC2)cc1	0%	37%[activator]
C=C(C)Cn1c(NCCCOCC)nc2c1c(=O)[nH]c(=O)n2C	-10%	-3%
COc1ccc(-c2coc3cc(OCC(=O)N4CCN(C)CC4)ccc3c2=O)cc1	-2%	71%[activator]
CCN(CC)S(=O)(=O)c1ccc(OC)c(NC(=O)c2sc3ccccc3c2Cl)c1	-1%&-1%	-7%&-7%
O=C(Nc1cccc(N2CCCC2=O)c1)c1nn(-c2ccccc2)c(=O)c2ccccc12	10%	6%
CCc1ccc(NC(=O)C2CCN(C(=O)N3CC(CC)Oc4ccccc43)CC2)cc1 (stereo not given)	3%	-16%
CCOc1ccccc1Oc1c(C)oc2cc(OC(=O)N3CCOCC3)ccc2c1=O	-3%	-3%
Cc1cc(C)c(S(=O)(=O)NCCc2cc3ccc(C)c(C)c3[nH]c2=O)c(C)c1	-8%	-16%
CC1CCN(CCCNCc2cccnc2)CC1	-3%	-6%
O=C(NCc1ccc2c(c1)CCN2C(=O)c1ccncc1)c1cccc(Cl)c1	-14%	-18%
CCNC(=O)NC(=O)C(C)N1CCN(c2ccccc2)CC1 (stereo not given)	-11%	6%
Cc1cc(NC(=O)c2ccc(F)cc2)cc(-c2nc3ccccc3o2)c1O	-9%	3%
COc1ccc(-c2noc(-c3ccc(NCc4cccnc4)c([N+](=O)[O-])c3)n2)cc1	-22%	-22%

Some of the entries so far, field by field.
SMILES: COC(=O)[C@]12C[C@H](CC(=O)NCC3CCCCC3)C(=O)N(Cc3ccc(Cl)cc3Cl)C1=C[C@H](C(C)C)O[C@@H]2C1CC1
  2A Renilla: 48%[activator]
  2A firefly: 4%
SMILES: CN(Cc1ccc(-c2ccc(Cl)cc2)o1)C(=O)CNC(=O)c1ccc(F)cc1
  2A Renilla: -20%
  2A firefly: -11%

The listing continues:
SMILES	2A Renilla	2A firefly
CCc1ccc(C(NC(=O)C2CC2)c2cccc(F)c2)cc1 (stereo not given)	2%[1.06 µM]	-2%
CCn1c(=O)c2cc(C(=O)NC3CCC(C)CC3)sc2c2ccccc21 (stereo not given)	72%[activator]	47%[activator]
Cc1ccc(C(=O)COC(=O)c2cccc(C)c2C)cc1	0%	137%[activator]
CC1(C)NC(=O)N(Cc2ncc(-c3cccc(Cl)c3)o2)C1=O	-17%	0%
Cc1ccccc1NC(=O)Cn1c(=O)n(Cc2ccc3c(c2)OCO3)c(=O)c2ccc(C(=O)NC3CCCCC3)cc21	1%	-4%
O=c1c(-c2cc(-c3ccccc3)nc3c2COc2ccc(Cl)cc2-3)coc2ccccc12	-12%	-12%
CCCCCn1nc(C(=O)OC(C)C(=O)Nc2ccc(NC(C)=O)cc2)c2ccccc2c1=O (stereo not given)	14%	21%
O=C(Nc1cn[nH]c1)C1CCN(c2ccc(Cl)nn2)CC1	-10%	-4%
CN(C)C(=O)c1ccc(NC(=O)c2ccccc2CSc2nc3ccccc3o2)cc1	-2%	110%[activator]
CC1(C)CC(NC(=S)NCCc2ccccc2)CC(C)(CNC(=S)NCCc2ccccc2)C1 (stereo not given)	0%	5%
CCC(CO)NC(=O)c1nn(-c2ccccc2F)nc1CO (stereo not given)	-3%	-1%
CCOC(=O)c1c(C)[nH]c(C)c1S(=O)(=O)N(C)CC(=O)Nc1ccccc1	82%[activator]	-2%
CCOCCCNC(=O)CS(=O)Cc1nc(-c2ccc(C)cc2)oc1C (stereo not given)	6%	13%
Cc1ccc(N2C(=O)CS(=O)(=O)C23C(=O)Nc2ccccc23)cc1C (stereo not given)	-5%	-1%
CC(C)C(=O)c1c(C(C)C)nn2ccccc12	-2%	-12%
COc1ccc(C2c3ccc(O)cc3Oc3ncn4nc(COc5ccc(C)cc5)nc4c32)cc1OC (stereo not given)	-18%	-4%
Cn1nc(-c2ccc(OCC(=O)N3CCOCC3)cc2)c2ccccc2c1=O	?	?
COc1ccccc1OCCCn1c(C2CC(=O)N(c3ccc(F)cc3)C2)nc2ccccc21 (stereo not given)	?	?
Cc1cc(O)ccc1C1CCCCC1	15%	0%
CCOC(=O)c1ccc(NC(=O)c2ccc3c(c2)c(C)c(C)n3Cc2ccc(F)cc2)cc1	4%	14%
COc1cccc(N2C(=O)C(CC(=O)Nc3cccc(F)c3)N(C3CCCC3)C2=O)c1 (stereo not given)	34%[activator]	-10%
O=C(CCl)NCNC(=O)CCl	?	?
COC(=O)c1ccccc1NC(=O)C1=CC(c2cccs2)=NS(=O)(=O)N1C	-5%	-6%
CC(=O)NC1=NN(C(C)=O)C(c2ccccc2OCc2ccccc2Cl)S1 (stereo not given)	51%[activator]	52%[activator]
Cc1oc(-c2ccccc2)nc1C(=O)OCC(=O)NC(=O)NC1CCCC1	-12%	3%
CCN(CC)S(=O)(=O)c1ccc(C(C)NC(=O)c2nn(CC)c(=O)c3ccccc23)cc1 (stereo not given)	69%[activator]	25%
Cc1ccsc1C(=O)OCC(=O)N1c2ccccc2NC(=O)C1(C)C	2%	-2%
CC1Cc2cc(S(=O)(=O)NCCc3ccc(Cl)cc3)ccc2N1C(=O)C1CCC1 (stereo not given)	249%[activator]	-6%
CC(C)CCCC(C)NC(=O)Cn1nc(N2CCN(c3ccccc3)CC2)ccc1=O (stereo not given)	-14%	-5%
CCN(C(=O)CSc1nc2ccccc2n1Cc1ccc(F)cc1Cl)c1ccccc1	-11%	-4%
Cc1ccc2c(C)c(CCC(=O)N3CCC(C(=O)N4CCCCC4)CC3)c(=O)oc2c1	-1%	57%[activator]
Cc1ccc(C(=O)c2ccc(CC(=O)O)n2C)cc1	-3%	-1%[11.5 µM]
Cc1cc(C)c(NC(=O)Cn2c(=O)n(Cc3ccc4c(c3)OCO4)c(=O)c3ccc(C(=O)NC4CCCCC4)cc32)c(C)c1	1%	3%
CCOc1ccc(-n2nc(C(=O)Nc3ccc(C(F)(F)F)cc3)c3ccccc3c2=O)cc1	1%	10%
O=C(CCC1NC(=O)N(CCc2c[nH]c3ccc(F)cc23)C1=O)NC1CC1 (stereo not given)	-9%	-6%
Cc1c(-c2ccccc2)oc2c(C(=O)NC(C)C3CC3)cccc2c1=O (stereo not given)	18%	19%
Cc1nn(CC(=O)Nc2ccc3c(c2)nc(CCNC(=O)C2CCCC2)n3C)c(=O)c2ccccc12	11%	-7%
Cc1ccccc1-n1c2nc(=O)[nH]c(=O)c-2cc2c(Cl)cccc21	-3%&-11%	-6%&-18%
Cc1ccc(C(C)C)c(OCC(=O)Nc2ccc(S(=O)(=O)Nc3onc(C)c3C)cc2)c1	-9%	-2%
COCC(=O)N1CCN(C(=O)Cc2ccc(N3CCCC3=O)cc2)CC1	-4%	4%
CCOC(=O)C(NC(=O)c1ccccc1Cl)(Nc1ccc(OC)cc1OC)C(F)(F)F (stereo not given)	13%	14%
O=C(c1ccc2c(=O)n(-c3ccccc3F)cnc2c1)N1CCOCC1	2%	0%
Cc1ccc(C)c(N2CCN(CCCNC(=O)c3cnn(-c4ccc(F)cc4)c3C3CCN(C(=O)OC(C)(C)C)CC3)CC2)c1	-11%	-15%
COc1ccc(-c2noc(-c3ccc(S(=O)(=O)N(C)C)o3)n2)cc1	23%	118%[activator]
O=C(Nc1ccc(F)cc1F)c1cc(S(=O)(=O)N2CCCCC2)c[nH]1	158%[activator]	32%[activator]
COc1ccc(-c2[nH]c3c(c2-c2c(-n4cccc4)n(C)c(=O)[nH]c2=O)c(=O)[nH]c(=O)n3C)cc1OC	1%	1%
Cc1cc(=O)[nH]c2nnc(SCC(=O)Nc3ccc(OC(F)(F)F)cc3)n12	6%	2%
CCN(CC)CCOC(=O)c1ccc(NC(=O)CSc2cc(=O)n(CC)c3ccccc23)cc1	-7%	-13%
CCc1nc(N)c(C#N)c(-c2ccc(Br)s2)c1C	1%	1%
Cc1c(C(=O)N(Cc2nc3ccccc3c(=O)[nH]2)C(C)C)oc2ccc(Br)cc12	-9%	-4%
Cc1cccc(C(=O)NCc2nnc(SCC(=O)NC3CCCCC3)n2-c2ccccc2)c1	16%	-3%
CCOC(=O)c1cc(-c2ccccc2)n(CCCC(=O)Nc2cccc(C)c2C)c1C	-7%	-10%
CCc1ccc(NC(=O)N2CCOc3ccc(Cl)cc32)cc1	7%	42%[activator]
CC(NC(=O)c1cc(S(=O)(=O)N(C)C)ccc1Br)c1cc2ccccc2o1 (stereo not given)	9%	-9%
CSc1ncc(C(=O)Nc2ccccc2C)c(-c2ccccc2)n1	16%	0%
CC1(C)OC(c2ccccc2O)OC1(C)C	29%	54%[activator]
CCn1cc(C(=O)NCc2ccc(C)cc2)c(=O)c2cc(S(=O)(=O)N3CCc4ccccc4C3)ccc21	-11%	-13%
COc1ccccc1-n1c2c(cc(C#N)c1=O)C(=O)CC(C)(C)C2	-6%	1%
COc1cccc(NC(=O)C2CCCN(S(=O)(=O)c3cn(C(C)C)cn3)C2)c1 (stereo not given)	-4%	64%[activator]
Cc1c(CC(=O)O)c(=O)oc2cc(OCc3ccc(C(C)(C)C)cc3)ccc12	-9%	0%
CCC(=O)N1c2ccccc2CC1C(=O)NCc1cccc(C)c1 (stereo not given)	-8%	-5%
CCCOc1ccc(/C=C/C(=O)Nc2cccc3cccnc23)cc1OC	13%	0%

Some of the compounds tested (hit frequency here may not be typical).
